# KCNQ2 inh = KCNQ2 channel blockers in CHO-K1 cells – cell-based, FluxOR thallium flux, B-score, primary screen (AID 2156); B-score at 10 µM; O88943; 20 min; active compounds read low; only compounds with negative scores are shown here; some inactives read as strong as hits; 1.1% of 310,000 active;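 active = fluorescence ratio B-score at most minus 3 library SDs, with starting brightness B-score within 2 library SDs, cut at about -5.5 in these data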
# Target sequence (O88943 whole entry, looked up): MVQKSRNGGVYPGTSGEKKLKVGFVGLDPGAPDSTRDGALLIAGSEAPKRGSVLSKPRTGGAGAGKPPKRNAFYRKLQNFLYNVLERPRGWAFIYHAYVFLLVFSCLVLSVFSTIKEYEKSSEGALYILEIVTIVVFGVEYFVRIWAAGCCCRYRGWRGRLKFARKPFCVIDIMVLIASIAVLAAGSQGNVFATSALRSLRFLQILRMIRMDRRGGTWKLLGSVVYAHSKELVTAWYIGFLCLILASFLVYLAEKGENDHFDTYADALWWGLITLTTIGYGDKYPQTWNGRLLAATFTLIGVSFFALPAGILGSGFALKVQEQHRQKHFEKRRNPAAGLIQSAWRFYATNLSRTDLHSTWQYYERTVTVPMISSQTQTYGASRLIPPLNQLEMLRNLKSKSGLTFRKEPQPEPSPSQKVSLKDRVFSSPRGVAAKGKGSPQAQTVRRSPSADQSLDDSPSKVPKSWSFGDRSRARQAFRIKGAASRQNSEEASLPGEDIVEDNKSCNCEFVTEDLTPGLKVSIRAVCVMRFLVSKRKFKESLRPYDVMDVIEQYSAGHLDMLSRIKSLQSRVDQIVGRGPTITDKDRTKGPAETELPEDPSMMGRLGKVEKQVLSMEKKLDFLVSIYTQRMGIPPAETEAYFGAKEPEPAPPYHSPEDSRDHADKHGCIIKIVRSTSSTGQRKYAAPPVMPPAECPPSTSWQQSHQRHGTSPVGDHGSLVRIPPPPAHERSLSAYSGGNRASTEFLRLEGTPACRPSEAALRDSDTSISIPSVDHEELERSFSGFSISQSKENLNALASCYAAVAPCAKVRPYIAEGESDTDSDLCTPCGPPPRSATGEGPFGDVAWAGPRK
# KCNQ2 inh baseline = second read-out of KCNQ2 inh, no call of its own (marks repeat the call); B-score; measured here: initial fluorescence intensity artifact check;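 brightness before thallium and not channel activity; 0 = typical well and far values either way flag optical interference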
# Active calls of the source: *; i = inactive. An excerpt, so the mix of outcomes need not match the whole.
# Order of results – KCNQ2 inh	KCNQ2 inh baseline
- CCOC(=O)N1CCC(NC(=O)C2CCCN(S(=O)(=O)c3cccc4nsnc34)C2)CC1 (configuration not stated)
→ i	1.69
- O=[N+]([O-])c1ccc(N2CCCCCC2)c([N+](=O)[O-])c1
→ i	-0.57
- O=C1c2[nH]nc(-c3ccccc3O)c2C(c2ccccc2F)N1Cc1ccco1 (configuration not stated)
→ i	-0.15
- CC(=O)c1csc(-c2cccc(-c3nc4ccc(Cl)cn4c3NC3CCCCC3)c2)c1
→ i	-4.6
- CC(=O)N(C1=C(N2CCOCC2)C(=O)c2ccccc2C1=O)c1ccc(C(=O)O)cc1
→ i	-1.08
- CCOC(=O)c1nc(Nc2cc(Cl)ccc2OC)c2ccccc2n1
→ i	1.13
- COc1ccc2c(C)nc(N/C(N)=N/S(=O)(=O)c3ccc(C)cc3)nc2c1
→ i	1.34
- O=C(NCCCNc1ccc([N+](=O)[O-])cc1)C(F)(F)F
→ i	-0.88
- Cc1onc(-c2c(F)cccc2Cl)c1C(=O)NC(=S)NC1CCS(=O)(=O)C1 (configuration not stated)
→ i	-2.63
- O=[N+]([O-])c1ccc(N/N=C2/CCCCC2c2ccccn2)cc1 (configuration not stated)
→ i	-0.51
- O=c1[nH]n(CCO)c(=O)c2cccnc12
→ i	1.44
- O=C1CCN(CCc2ccccc2)CCN1[C@H](CSc1ccc(Br)cc1)Cc1ccccc1
→ i	0.44
- CCOC(=O)C1(CCOc2ccccc2)CCN(Cc2ccc(C(=O)OC)cc2)CC1
→ i	2.81
- CN(C)CCOC(=O)CCc1ccccc1
→ i	-0.62
- O=C(NCc1cccnc1)[C@@H]1CC=C[C@@H]2CCN(Cc3ccccc3)C(=O)[C@@H]21
→ i	-0.45
- COc1ccc2c(c1)cc(C)c1nnc(SCC(=O)N(C)c3nc(-c4ccccc4)cs3)n12
→ i	-0.19
- CCCCNC(=O)CN1C(=O)c2cccc(N)c2C1=O
→ i	6.65
- CC(C)n1c(SCC(=O)Nc2nncs2)nnc1C1CC1
→ i	2.18
- COc1cccc(-n2c(=O)c3sccc3n(CC(=O)NCC3CCCO3)c2=O)c1 (configuration not stated)
→ i	-1.1
- CS(=O)(=O)N(CC(=O)N1CCN(c2ccccc2)CC1)c1ccccc1Cl
→ i	0.53
- CC(=O)N1CCC2(CC1)CC(=O)c1cc(OCC(=O)NCc3ccco3)ccc1O2
→ i	0.5
- COc1ccc(C(=O)/C=C/c2ccccc2F)c(OC(=O)c2ccc([N+](=O)[O-])cc2)c1
→ i	-0.29
- Cc1ccn(CC(=O)N2CCCC(N3CCN(c4ccccc4F)CC3)C2)n1 (configuration not stated)
→ i	2.54
- O=C(CSc1ccccc1)Nc1nnc(COc2ccc(Cl)cc2)s1
→ i	-0.25
- CCN(CC)S(=O)(=O)c1ccc(N=Nc2c(C)[nH]n(C(N)=S)c2=O)cc1
→ i	-0.39
- Cc1ccc(O)c(NC(=O)c2cc(C)no2)c1
→ i	-3.49
- C=CCNC(=O)/C(=C\c1ccc([N+](=O)[O-])cc1)NC(C)=O
→ i	-0.28
- CC(C)C(=O)Nc1cccc(C(=O)Nc2nncs2)c1
→ i	0.7
- Cc1ccc(Oc2nccc(-c3ccc(Cl)cc3)n2)cc1
→ i	-0.11
- CC(=O)c1cc2c(cc1NC(=O)CCCC(=O)O)OCO2
→ i	4.23

# The list goes on.
# Order of results – KCNQ2 inh	KCNQ2 inh baseline
- CCOc1ccc(NC(=O)CN(C)C(=O)C2CC(=O)N(c3ccc4c(c3)OCCO4)C2)cc1OCC (configuration not stated)
→ i	0.01
- CCC(=O)OCCn1c(Br)nc2c1c(=O)[nH]c(=O)n2C
→ i	-0.31
- Cc1ccc(N=c2c([N+](=O)[O-])nn(-c3ccc4c(c3)OCCO4)n2O)cc1F
→ i	-0.55
- CCNC(=O)/C(=C\c1ccc2c(c1)OCO2)NC(=O)c1ccc(Br)cc1
→ i	0.52
- CC(CCc1ccccc1)NC(=O)COC(=O)c1cccc(N(C)C)c1 (configuration not stated)
→ i	-0.81
- Cn1c(NCc2c(O)ccc3ccccc23)nc2ccccc21
→ i	0.43
- COc1ccc(N2CCN(c3nc(-c4cccs4)nc4ccccc34)CC2)cc1
→ i	-0.07
- C/C(=N\Nc1nc(C(=O)O)cs1)c1ccccc1
→ i	-0.43
- CN(C)c1ccc(NC(=O)C2C3C=CC(C3)C2C(=O)O)cc1 (configuration not stated)
→ i	4.61
- COc1ccc(N(C(=O)c2ccco2)S(=O)(=O)c2ccccc2)cc1
→ i	0.01
- CCC(=O)N1CCN(c2nc(-c3ccccc3)c3c(c2C#N)CCCC3)CC1
→ i	-1.59
- Cn1c(N2CCN(C(c3ccccc3)c3ccccc3)CC2)nc2ccccc21
→ -12.5*	-0.95*
- C=CCn1c(SCc2nc3cc(C(=O)OC)ccc3c(=O)[nH]2)nc2sc(CC)cc2c1=O
→ i	1.27
- O=C(Nc1nnc(COc2ccccc2)s1)Nc1ccccc1F
→ i	1.35
- O=C(CCN1CCN(c2ccccc2)CC1)Nc1ccc(OCc2ccccc2)cc1
→ i	-0.47
- O=C1OCC/C1=C\c1ccccc1O
→ i	2.35
- CCCn1c(=O)c(C(=O)Nc2ncccc2O)c(O)c2ccccc21
→ i	-0.02
- CCN(CC)C(=O)C1CCCN(Cc2nc(-c3cccs3)no2)C1 (configuration not stated)
→ i	-1.17
- CCOC(=O)N1CCC(N2Cc3cccc(C(=O)NC(C)c4ccc5c(c4)OCCO5)c3C2=O)CC1 (configuration not stated)
→ i	0.06
- O=C(CCN1CCCCCC1)Nc1cccc(Cl)c1
→ i	-0.65
- N#CC1=C(N)Oc2cc(O)c(Cl)cc2C1c1cccnc1 (configuration not stated)
→ i	8
- CCOCCn1ccc2c(OCC(=O)NCc3ccccc3)cccc2c1=O
→ i	0.25
- COC(=O)C(=C/C(C)=C/c1cccs1)C(=O)OC
→ i	-0.96
- CC(CN1CCCCC1)OC(=O)c1ccc(Cl)cc1Cl (configuration not stated)
→ i	0.77
- O=C(c1ccco1)N1CCN(C(=O)c2ccccc2OC(=O)C23CC4CC(CC(C4)C2)C3)CC1
→ i	2.93
- O=C1NC(=S)N/C1=C/c1cccc2ccccc12
→ i	0.29
- Cc1ccc(C)c(OC(=O)c2cncc(Br)c2)c1
→ i	1.21
- CC1Cc2ccccc2N1S(=O)(=O)c1cccs1 (configuration not stated)
→ i	-0.03
- Cc1ccc(S(N)(=O)=O)cc1NC(=O)C1CC2CCC1C2 (configuration not stated)
→ i	-0.5
- CCOC(=O)C(C)On1c(-c2cccc(Cl)c2)nc2ccc([N+](=O)[O-])cc21 (configuration not stated)
→ i	-0.08

# Profiles from above:
# Results for CC(CN1CCCCC1)OC(=O)c1ccc(Cl)cc1Cl (configuration not stated) = KCNQ2 inh = i; KCNQ2 inh baseline = 0.77
# Results for Cn1c(NCc2c(O)ccc3ccccc23)nc2ccccc21 = KCNQ2 inh = i; KCNQ2 inh baseline = 0.43

# (cont.)
molecule,KCNQ2 inh,KCNQ2 inh baseline
CCCCc1ccc(/C(C)=N/Nc2cc(N3CCOCC3)nc(C)n2)cc1,i,-0.84
COc1cc(C(=O)N/N=c2/sc3ccccc3n2C)cc(OC)c1OC,i,-1.33
CC(C)N(Cc1cn[nH]c1-c1ccc(-c2ccccc2)cc1)Cc1nccn1C,i,0.17
Clc1cccc(Cn2ncc3ccccc32)c1,i,0.57
CCOC(=O)c1c(/N=C/C2C(=O)CC(C)(C)CC2=O)sc(C)c1C,i,-1.64
CC/C=C/C(=O)N1CC2(CC(c3cccc(NC(=O)CC(c4ccccc4)c4ccccc4)c3)=NO2)C[C@@H]1C(N)=O (some centres not stated),i,-0.73
O=[N+]([O-])c1cc(Cc2ccccc2)cc(C=Nc2ccc(N3CCOCC3)cc2)c1O,i,0.27
Cn1nc(-c2ccccc2)c(COC(=O)c2cccc(Cl)c2)c1S(=O)(=O)c1ccccc1,i,0.04
Cn1cnnc1SCc1ccc(-c2ccc(Br)cc2)o1,i,1.13
O=C(CCCCCN1C(=O)[C@@H]2Cc3ccccc3CN2C1=O)Nc1ccccc1Cl,i,-1.59
CCc1c(C)c(C#N)c2nc3ccccc3n2c1NCCOC,i,0.02
CCN1C(=O)/C(=C2\SC(N3CCCCC3)=NC2=O)c2ccccc21,i,0.98
Cc1ccc2c(c1)nnn2C1CCN(CC(=O)Nc2ccc3c(c2)OCCO3)CC1,i,-0.66
COc1cc(SC)ccc1C(=O)NCC1CCCO1 (configuration not stated),i,1.7
Cc1cc(C)c(C#N)c(SCc2ccc([N+](=O)[O-])cc2)n1,i,0.02
Cc1ccc(N=Cc2c(O)[nH]c3ccccc23)c([N+](=O)[O-])c1,i,1.58
CCOC(=O)CNC(=S)n1cnc(N)n1,i,0.06
Cc1ccc(F)cc1N=Cc1c(O)c2ccccc2oc1=O,i,-0.24
On1c(-c2ccccc2)nc2ccccc21,i,1.45
Cc1ccccc1-c1nnn(Cc2ccc(F)cc2Cl)n1,i,-0.46
CCCc1nnc(NC(=S)Nc2ccccc2)s1,i,0.78
C#CCOc1ccc(/C=C2\SC(=S)N(Cc3cccnc3)C2=O)cc1,i,0.29
O=C(Nc1cccc(-c2cccc(F)c2)c1)C1CCN(Cc2ccc(CO)o2)CC1,i,-0.03
COc1nc(N)nc(N2CCOCC2)n1,i,0.41
O=C(c1ccc(F)cc1)c1cc2ccc(O)cc2oc1=O,i,-0.44

# Reprinted at random: 3 records from the list.
molecule,KCNQ2 inh,KCNQ2 inh baseline
Cc1ccc(N=Cc2c(O)[nH]c3ccccc23)c([N+](=O)[O-])c1,i,1.58
Cc1ccccc1-c1nnn(Cc2ccc(F)cc2Cl)n1,i,-0.46
O=C(CCCCCN1C(=O)[C@@H]2Cc3ccccc3CN2C1=O)Nc1ccccc1Cl,i,-1.59

# Next results follow.
molecule,KCNQ2 inh,KCNQ2 inh baseline
COc1ccc(CNS(=O)(=O)c2ccc(C3CNC(=O)C3)cc2)cc1 (configuration not stated),i,1.18
Cn1[nH]c(-c2ccccc2)c(/C=N/O)c1=O,i,0.06
CC(C)(C)c1nc(SCC(=O)NCc2cccs2)c2ccccc2n1,i,-1
O=C(NCc1cccs1)c1ccccc1F,i,-0.06
COc1ccccc1-c1cc(C(F)(F)F)nc(S(=O)(=O)CCCC(=O)N2CCOCC2)n1,i,-0.85
CSc1ccc(CN(C)CC(=O)NCc2ccccc2)cc1,i,-0.31
COc1cccc(C(=O)Oc2ccccc2/C=C\C(=O)c2cc3ccccc3o2)c1,i,-0.01
C=CCn1cn[nH]c1=S,-8.35*,-0.56*
O=C1NCCN(Cc2ccoc2)C1CC(=O)N(Cc1ccccc1)CC1CCC1 (configuration not stated),i,0.66
CCOC(=O)c1sc2nc(CSc3ccccc3)[nH]c(=O)c2c1C,i,-2.01
COc1ccc(/C=C2\C(=O)NCC(=O)N2Cc2ccccc2)cc1,i,1.55
COc1ccc(-c2[nH]ncc2CN(C)Cc2cc(C)[nH]n2)c(F)c1,i,0.23
O=c1c(/C=N/O)coc2ccc(Cl)cc12,i,-0.16
CCOC(=O)c1c(-c2ccc(C)o2)csc1NC(=O)CSc1nnc(C)s1,i,-1.12
COc1cccc(NC(=O)Cn2c(CCC(=O)O)ccc2-c2ccccc2)c1,i,-0.22
O=C(NCc1ccco1)c1cc2nc(-c3cccs3)cc(C(F)(F)F)n2n1,i,0.1
COc1cc(OC)c(S(=O)(=O)Nc2ccccc2C(=O)O)cc1S(=O)(=O)Nc1ccccc1C(=O)O,i,3.14
COc1ccc(N2C(=O)CC(N3CCN(c4ccc(S(C)(=O)=O)cc4)CC3)C2=O)cc1 (configuration not stated),i,0.31
N#Cc1c(C(F)(F)F)cc(-c2cccs2)nc1SCC(=O)O,i,-0.01
COCCN(CC(=O)NCc1ccccc1)C(=O)CCC(=O)Nc1nccs1,i,1.17
CS(=O)(=O)C1=NSC2=NC(=O)/C(=C\c3cccn3-c3ccc(Cl)cc3)C(=N)N21,i,0.12
COc1ccc(CNC(=O)c2nc(S(=O)(=O)Cc3ccccc3)ncc2Cl)cc1,i,-0.7
CC(C)(C)OC(=O)[C@H](Cc1ccccc1)NC(=O)c1nc[nH]c1C(=O)NCc1ccccc1,i,-0.73
CCOC(=O)c1nn(-c2cccc(C)c2)cc1C(=O)c1ccccc1,i,-1.39
CC(O)[C@H]1CNC(=S)N1CCc1cccc(F)c1 (some centres not stated),i,0.01

# New compounds follow
molecule,KCNQ2 inh,KCNQ2 inh baseline
CNC(=O)c1c(NC(=O)CCS(=O)(=O)c2ccc(C)cc2)sc2c1CCN(C(=O)OC)C2,i,-0.69
O=C(NC(=S)Nc1ccccc1O)c1ccccc1Cl,i,-1
CN(C)c1ccc(N=Nc2ccccc2C(=O)OCC(=O)NCC2CCCCC2)cc1,i,-0.63
Cc1[nH]n(-c2cccc(Cl)c2)c(=O)c1-c1ccccc1,i,4.35
CCCCn1c(SCC(=O)Nc2sc3c(c2C(N)=O)CCC3)nnc1-c1ccccc1,i,0.44
O=C(Nc1c(-c2ccccc2)nc2ncccn12)c1cc2ccccc2oc1=O,i,-0.36
O=C(NC1CC1)c1ccc2c(c1)C1C3CCC(C3)C1C(c1ccccc1)N2 (configuration not stated),i,1.07
COc1ccc(-c2nn(-c3ccccc3)cc2/C=C(\C#N)S(=O)(=O)c2ccccc2)cc1OC,i,-0.8
CCN1C(=O)/C(=C/N2CCc3ccccc3C2)SC1=S,i,0.67
COc1ccc(CCC(C)Nc2ccccc2F)cc1 (configuration not stated),i,-0.12
O=C(O)CCc1ccc(-c2ccc(F)cc2)n1CC(=O)O,i,-0.23
CCOc1ccc(-c2cc(C(=O)N/N=C/c3cccnc3)c3ccccc3n2)cc1,i,-0.52

# Laid out differently: entries from further up.
Cc1cc(C)c(C#N)c(SCc2ccc([N+](=O)[O-])cc2)n1
  KCNQ2 inh = i
  KCNQ2 inh baseline = 0.02
CCCCn1c(SCC(=O)Nc2sc3c(c2C(N)=O)CCC3)nnc1-c1ccccc1
  KCNQ2 inh = i
  KCNQ2 inh baseline = 0.44
